# RE007 growth inh: less growth of the S. pombe RE007 Vpr strain; S. pombe RE007 Vpr strain, BacTiter-Glo ATP luminescence, 24 h; control for the full effect not named in the record; Potency, µM (top dose mostly 92.2 µM), for inactives: at the top dose activity change, negative = less growth; 0.21% of 360,000 active; AID 651644; active = well fitted falling curve with a large enough effect; inconclusive = small, poorly fitted or top-dose-only effect; inactive = no such curve, though single readings can be large or run the other way;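 note: % is set by controls: 0 for no effect and ±100 for the full control effect; nearly all actives have a fitted effect of over 50% in size; the assay follows cell death caused by Vpr and the record does not say whether a fall means rescue or toxicity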
#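 Fission yeast RE007 carrying one integrated HIV-1 vpr copy, seeded at OD 0.01 in PMG+AL medium with 23 nL pinned compound. Grown 24 h at 30 degrees; viability read by BacTiter-Glo luminescence after 5 min.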
# 2A StopGo: FMDV 2A StopGo reporter, luciferase signal; human cells with a luciferase reporter of 2A StopGo recoding; control for the full effect not named in the record; 1.2% of 410,000 active; Potency, µM (top dose mostly 57.9 µM), for the others: at the highest dose signal change, negative = less light; active = well fitted falling curve with a large enough effect; inconclusive = small, poorly fitted or top-dose-only effect; inactive = no such curve, though single readings can be large or run the other way; tested in HEK293T cells; note: % is set by controls: 0 for no effect and ±100 for the full control effect; nearly all actives have a fitted effect of over 45% in size; luciferase light after 4 h
# Lassa entry inh: Lassa virus entry inhibition. Lassa virus pseudotype entry inhibition, cell reporter; control for the full effect not named in the record. Potency, µM (highest dose often 37.9 µM), inactives show top-dose activity change, negative = inhibition, hits mostly inhibitors. 1.2% of 300,000 active; active means well fitted inhibition curve with a large enough effect; inconclusive means small, poorly fitted or top-dose-only effect, or effect the other way; inactive means flat fitted curve, though single readings scatter; tested in HEK293 cells; note: % is set by controls: 0 for no effect and ±100 for the full control effect; nearly all actives have a fitted effect of over 50% in size; luciferase read-out
# Cruzain noTriton: cruzain (T. cruzi) inhibition without detergent; 2.3% of 200,000 active; Potency, µM, without a hit: max response, negative = inhibition, hits mostly inhibitors; purified cruzain, Z-FR-AMC fluorescence, no detergent; P25779; active = well fitted curve in the direction sought with a large enough effect; inconclusive = small, poorly fitted or top-dose-only effect, or another doubt; inactive = no such curve, though single readings can be large; an effect the other way counts as inactive or inconclusive;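 note: plate controls were enzyme without inhibitor for no effect and buffer without enzyme for full effect; nearly all actives have a fitted effect of over 40% in size; top concentration of the series not given in the record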
# Target sequence (P25779 123-467 limits assumed): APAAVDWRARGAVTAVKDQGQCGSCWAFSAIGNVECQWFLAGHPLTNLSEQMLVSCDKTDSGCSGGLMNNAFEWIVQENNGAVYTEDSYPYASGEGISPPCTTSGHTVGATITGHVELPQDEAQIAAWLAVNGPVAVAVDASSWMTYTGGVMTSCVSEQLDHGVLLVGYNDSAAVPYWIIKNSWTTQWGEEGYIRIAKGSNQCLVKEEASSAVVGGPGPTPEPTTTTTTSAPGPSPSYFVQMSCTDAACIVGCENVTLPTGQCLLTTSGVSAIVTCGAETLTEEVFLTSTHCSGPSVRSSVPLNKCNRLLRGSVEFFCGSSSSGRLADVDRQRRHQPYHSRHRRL
#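 Detergent-free condition (0.00005% Triton X-100) in acetate buffer pH 5.5 with DTT. 1.5 nM enzyme and compound were pre-mixed 15 min, then 2 uM Z-FR-AMC substrate added; reaction progress from fluorescence change between first and third reads (60 s).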
# MARV entry inh: Marburg virus entry inhibition | Potency, µM (titrated, usually from 37.8 µM), for inactives: at the highest dose activity change, negative = inhibition, hits mostly inhibitors | 1.8% of 300,000 active | Marburg virus pseudotyped entry inhibition, cell reporter; control for the full effect not named in the record; about a third of the inactives were read at about 46 µM; active = well fitted inhibition curve with a large enough effect; inconclusive = small, poorly fitted or top-dose-only effect, or effect the other way; inactive = flat fitted curve, though single readings scatter; tested in HEK293 cells; about a fifth of its hits are not listed in these tables; note: % is set by controls: 0 for no effect and ±100 for the full control effect; luciferase read-out
# NS1 inh: influenza NS1 inhibition; S. cerevisiae slowed by influenza A NS1, growth recovery by OD600; Potency, µM (doses to about 46.1 µM), inactives show top-dose activity, positive = more growth; 0.4% of 270,000 active; note: actives are rising curves; nearly all actives have a fitted effect of over 50% in size
#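 S. cerevisiae expressing influenza A NS1, grown in glucose, washed, then diluted 1:100 into pH 6.0 -URA galactose medium with 23 nl compound. Growth recovery read as OD600; NS1-free strain serves as control.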
# Cruzain Triton: inhibitors of Trypanosoma cruzi cruzain with detergent | purified cruzain, Z-FR-AMC fluorescence, 0.01% Triton | 0.43% of 200,000 active | Potency, µM, for inactives: max response, negative = inhibition, actives largely listed as inhibitors | P25779; active = well fitted curve in the direction sought with a large enough effect; inconclusive = small, poorly fitted or top-dose-only effect, or another doubt; inactive = no such curve, though single readings can be large; an effect the other way counts as inactive or inconclusive;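 note: plate controls were neutral wells for no effect and buffer without enzyme for full effect; nearly all actives have a fitted effect of over 40% in size; top concentration of the series not given in the record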
#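 15 min RT preincubation of 1.5 nM cruzain with compound, then 2 uM Z-FR-AMC added; kinetic AMC fluorescence, 60 s delta. Triton X-100 0.01%, pH 5.5.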
# SARS PLP yeast: inhibitors of SARS-CoV papain-like protease in yeast. S. cerevisiae expressing SARS-CoV PLpro, growth rescue; control for the full effect not named in the record. Potency, µM (highest dose often 32.9 µM), inactives show at the top dose activity, positive = growth rescue. 0.19% of 330,000 active; note: 0% is about no effect; nearly all actives have a fitted effect of over 55% in size; growth read by luminescence after 48 h
# Starred values were filed as active, the others as inactive; ? = inconclusive; . = not tested or not shown; [ ] = remark or other dose. Unless noted, calls come from the whole dose curve; as a rule, active means well fitted rising curve with a large enough effect; inconclusive means small, poorly fitted or top-dose-only effect; inactive means no such curve, though single readings can be large or run the other way. Potency is the fitted concentration of half-maximal effect. Compounds as they come. About 4.7% of those tested had a hit in this group.
structure	RE007 growth inh	MARV entry inh	2A StopGo	NS1 inh	Cruzain noTriton	Cruzain Triton	SARS PLP yeast	Lassa entry inh
O=C1/C(=C/c2ccco2)SC(=S)N1c1cccnc1	?	?	-8%	6%	.	.	0%	?
Cc1ccc(S(=O)(=O)N2CC(=NO)C2)cc1	-21%	0%	-11%	6.3µM*	1%	3.9%	-1%	-2%
COc1cccc(/C=N/N=C(\N)c2nonc2N)c1O	12%	?	0%	.	.	.	0%	3%
COc1ccc(OC)c(S(=O)(=O)NCc2csc(-c3ccccc3)n2)c1	-2%	-4%	.	-14%	-8%	1.9%	-3%	-6%
COC(=O)CN(Cc1ccccc1)S(=O)(=O)c1ccc(OC)c(OC)c1	-6%	6%	.	2%	2%	5.6%	-1%	-8%
O=S(=O)(c1ccccc1)N1CCN(c2nnc(-c3ccccc3)c3ccccc23)CC1	-10%	?	?	2%	.	.	0%	?
O=C(O)c1ccc(NS(=O)(=O)c2cccc3nsnc23)cc1	-1%	3%	.	4%	-9%	0.5%	1%	7%
CCCC(C)NC(=O)COc1ccc(S(=O)(=O)N2CCCC2)cc1 (stereo not given)	-13%	-27%[46.1 µM]	-1%	-3%	.	.	1%	-5%[46.1 µM]
CCCS(=O)(=O)N1CCCC(C(=O)NCCCN2CCN(c3cccc(Cl)c3)CC2)C1 (stereo not given)	-9%	-18%	?	-5%	8%	-0.5%	5%	-17%
Cc1cc(C(=O)CN2CCCC(C)C2)c(C)n1-c1ccc(F)cc1 (stereo not given)	11%	3%	15%	8%	-7%	-3.5%	-1%	4%
O=C(Nc1cccc(CNCCc2c[nH]c3ccccc23)c1)c1ccccc1Cl	?	.	-15%	-2%	.	.	0%	.
O=C(CNC(=O)c1ccc(Br)o1)NCC1CCCO1 (stereo not given)	11%	.	-17%	-4%	.	.	?	.
Clc1ccc(OCc2nn3c(-c4ccccc4)nnc3s2)c(Cl)c1	9%	9%	-3%	10%	?	0.8%	-3%	2%
COc1ccc(C(=O)NCC(=O)OC2CCCCC2=O)cc1 (stereo not given)	11%	22%[46.1 µM]	17%	-2%	-21%	-21%	3%	3%
CCOC(=O)c1cnc2cc(-c3ccc(OCC)cc3)nn2c1-c1ccccc1	.	.	-21%	.	-6%	-0.5%	.	?
COCCCNC(=O)CN(c1ccc(Cl)c(Cl)c1)S(C)(=O)=O	17%	-2%	5%	0%	-14%	0.1%	3%	3%
COc1ccccc1OCCOCCOc1ccc(C)cc1Br	-8%	-3%	-10%	-2%	5%	-4.7%	0%	18%
CN1CCN(C(=O)N2c3ccccc3CCc3ccccc32)CC1	-14%	-23%[46.1 µM]	22%	-1%	.	.	4%	-21%
Cc1nc(-c2ccccc2)sc1CCNS(=O)(=O)c1ccc(Br)cc1	.	.	28%	.	7%	-4.6%	.	-14%[46.1 µM]
Cc1cc(C)n(-c2ccc(C(=O)OC(C)C(=O)Nc3ccc(C(N)=O)cc3)cc2)n1 (stereo not given)	-17%	12%[46.1 µM]	35µM*	.	.	.	-1%	6%
COCCN1C(=O)c2ccc(C(=O)Nc3cccnc3)cc2C1=O	6%	8%	-3%	4%	.	.	4%	-10%
O=C(CCCn1c(=O)[nH]c2cc(Cl)ccc2c1=O)NC1CCCCCC1	-7%	0%	-23%	2%	3%	13%	1%	-14%
Cc1cccc(NC(=O)/C(C#N)=C/c2cn(CC(=O)NCc3ccco3)c3ccccc23)c1	7%	?	-18%	4%	10µM*	-3.3%	2%	6%
Cc1ccc(NC(=S)NNC(=O)Cn2nc(C(F)F)cc2C(F)F)cc1	19%	1%	-10%	-16%	1%	0.2%	0%	-8%
Cc1nn(-c2ccccc2)c(C)c1/C=N/N1CCN(c2ccccn2)CC1	-5%	14%[46.1 µM]	?	.	.	.	-5%	2%

# Next results:
structure	RE007 growth inh	MARV entry inh	2A StopGo	NS1 inh	Cruzain noTriton	Cruzain Triton	SARS PLP yeast	Lassa entry inh
O=C(COC(=O)Cc1ccc(S(=O)(=O)N2CCOCC2)s1)NCc1ccc(Cl)cc1	11%	1%	9%	0%	18%	-7.2%	5%	-16%
CCOc1ccc(NC(=O)CCN2CCN(S(=O)(=O)c3ccc(Cl)cc3)CC2)cc1	-8%	4%	.	-15%	29%	-0.5%	11%	-16%
CN(c1cccc(NC(=O)c2ccc(N(C)S(=O)(=O)c3ccccc3)cc2)c1)S(C)(=O)=O	-4%	16µM*	14µM*	-2%	.	.	0%	?
CCOC(=O)N1CCN(S(=O)(=O)c2ccc3[nH]cc(C(=O)O)c(=O)c3c2)CC1	10%	18%	-5%	14%	-5%	2.3%	5%	14%
Cc1ccc(Cl)cc1NC(=O)CN1C(=O)C(C)(C)c2cc(S(=O)(=O)N3CCCCC3)ccc21	.	.	37%[activator]	.	?	0.0%	.	?
CCOC(=O)N1CCN(C(=O)CSc2ccc(C(F)(F)F)cc2[N+](=O)[O-])CC1	-12%	24%[46.1 µM]	-3%	15%	.	.	2%	.
Cc1cc(C)n2nc(C)c(-c3ccc(Cl)cc3)c2n1	-13%	.	?	-21%	.	.	-10%	.
CCCOc1ccccc1/C=N/NC(=O)C1CC1	5%	6%[46.1 µM]	?	2%	.	.	-2%	-1%[46.1 µM]
COc1ccc2c(C)cc(N3CCN(Cc4ccccc4)CC3)nc2c1	-8%	.	-18%	-4%	.	.	1%	.
COc1cc(C(=O)N/N=C(\Cc2ncc[nH]2)c2ccccc2)cc(OC)c1OC	1%	?	-2%	.	.	.	2%	?
CN(C)c1ccc(CNC(=O)CCCN2C(=O)CCn3nc(-c4cn(C)c5ccccc45)cc32)cc1	.	.	4%	.	8%	-2.2%	.	-7%[46.1 µM]
Cc1ccc(S(=O)(=O)CS(=O)(=O)c2ccc(C)cc2)cc1	6%	1%	-7%	.	.	.	.	15%[46.1 µM]
Cc1ccc(NS(=O)(=O)Cc2ccccc2)nc1	4%	16%[46.1 µM]	40%[activator]	2%	.	.	0%	2%
CCOc1ccc(CC2CC(=O)NC2=O)cc1 (stereo not given)	15%	0%	-10%	13%	8%	4.3%	-3%	-3%
O=C(NC1CCCCCCC1)c1ccccc1O	?	?	-12%	-165%	3%	-7.2%	-31%	8%
CC(C)(C)NC(=O)CN(C(=O)CNS(=O)(=O)c1ccc(Cl)cc1)c1ccc2c(c1)OCCO2	-18%	3%[46.1 µM]	-8%	3%	.	.	3%	-5%
COc1cc(Nc2nn(-c3ccc(OC(F)(F)F)cc3)nc2C(C)=O)cc(OC)c1	.	3%[46.1 µM]	0%	.	-8%	-2.1%	.	-4%[46.1 µM]
CCN1C(=O)NC2=C(C(=O)c3ccccc32)C1c1ccccc1F (stereo not given)	-5%	-11%	?	?	-6%	-3.3%	2%	-5%
Cc1ccc2c(C(=O)CCl)c(C)[nH]c2c1	1%	.	?	-53%	.	.	2%	.
Cc1ccccc1OCCC(=O)OCC(=O)N1CCN(S(=O)(=O)c2ccc(Cl)cc2)CC1	-10%	-13%	-22%	.	.	.	.	?
Cc1cc(C)cc(NS(=O)(=O)c2ccc3[nH]cc(C(=O)N(C)Cc4ccccc4)c(=O)c3c2)c1	.	-16%[46.1 µM]	13%	.	6%	-8.9%	.	-27%[46.1 µM]
N/C(=N\OC(=O)COc1ccc(Br)cc1Cl)c1ccccn1	-14%	?	-36%	-25%	-6%	-11%	-13%	2µM*
O=C(Cn1cnc2c(nnn2Cc2ccccc2)c1=O)NCC1CCCO1 (stereo not given)	8%	.	-21%	-16%	3%	1.9%	-2%	.
c1coc(-c2nc3ccccc3nc2-c2ccco2)c1	-12%	?	.	-6%	13µM*	14µM*	-2%	-8%

# Taken from above for reference:
structure	RE007 growth inh	MARV entry inh	2A StopGo	NS1 inh	Cruzain noTriton	Cruzain Triton	SARS PLP yeast	Lassa entry inh
COc1ccc2c(C)cc(N3CCN(Cc4ccccc4)CC3)nc2c1	-8%	.	-18%	-4%	.	.	1%	.
COc1cc(C(=O)N/N=C(\Cc2ncc[nH]2)c2ccccc2)cc(OC)c1OC	1%	?	-2%	.	.	.	2%	?
CN(C)c1ccc(CNC(=O)CCCN2C(=O)CCn3nc(-c4cn(C)c5ccccc45)cc32)cc1	.	.	4%	.	8%	-2.2%	.	-7%[46.1 µM]
Cc1ccc(S(=O)(=O)CS(=O)(=O)c2ccc(C)cc2)cc1	6%	1%	-7%	.	.	.	.	15%[46.1 µM]
Cc1ccc(NS(=O)(=O)Cc2ccccc2)nc1	4%	16%[46.1 µM]	40%[activator]	2%	.	.	0%	2%
CCOc1ccc(CC2CC(=O)NC2=O)cc1 (stereo not given)	15%	0%	-10%	13%	8%	4.3%	-3%	-3%
O=C(NC1CCCCCCC1)c1ccccc1O	?	?	-12%	-165%	3%	-7.2%	-31%	8%
CC(C)(C)NC(=O)CN(C(=O)CNS(=O)(=O)c1ccc(Cl)cc1)c1ccc2c(c1)OCCO2	-18%	3%[46.1 µM]	-8%	3%	.	.	3%	-5%
COc1cc(Nc2nn(-c3ccc(OC(F)(F)F)cc3)nc2C(C)=O)cc(OC)c1	.	3%[46.1 µM]	0%	.	-8%	-2.1%	.	-4%[46.1 µM]
CCN1C(=O)NC2=C(C(=O)c3ccccc32)C1c1ccccc1F (stereo not given)	-5%	-11%	?	?	-6%	-3.3%	2%	-5%
Cc1ccc2c(C(=O)CCl)c(C)[nH]c2c1	1%	.	?	-53%	.	.	2%	.
Cc1ccccc1OCCC(=O)OCC(=O)N1CCN(S(=O)(=O)c2ccc(Cl)cc2)CC1	-10%	-13%	-22%	.	.	.	.	?
